Screening results as filed in PubChem.
GLA inh pH 4.5: blocks human alpha-galactosidase A at pH 4.5. P06280. purified enzyme, 4-MU-alpha-Gal fluorescence, pH 4.5. activity change, negative = inhibition, % at 105 µM. 230,000 tested, under 10 active. AID 1467; inconclusive = small, poorly fitted or top-dose-only inhibition, or a rising curve; inactive = flat fitted curve, though single readings scatter; no compound was filed as active;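 also: 0% = full activity with enzyme and -100% = basal without enzyme; dose as in the result columns while the protocol names 77 µM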
Target sequence (P06280 whole entry, looked up): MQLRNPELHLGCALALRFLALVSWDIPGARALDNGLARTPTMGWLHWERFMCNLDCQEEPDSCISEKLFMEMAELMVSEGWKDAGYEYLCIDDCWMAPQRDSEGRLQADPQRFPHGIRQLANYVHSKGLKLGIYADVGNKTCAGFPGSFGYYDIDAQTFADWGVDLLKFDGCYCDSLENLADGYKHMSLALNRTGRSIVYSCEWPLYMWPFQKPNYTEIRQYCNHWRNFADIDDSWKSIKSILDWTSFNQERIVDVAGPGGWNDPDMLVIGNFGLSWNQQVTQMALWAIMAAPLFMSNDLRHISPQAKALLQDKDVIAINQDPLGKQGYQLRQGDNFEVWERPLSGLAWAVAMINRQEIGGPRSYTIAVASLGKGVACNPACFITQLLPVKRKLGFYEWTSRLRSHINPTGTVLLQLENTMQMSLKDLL
Rango release inh: prevents RanGTP from dissociating the Rango-importin beta complex; O95149+P62826; Biochemical FRET Rango-importin beta, RanGTP-induced dissociation; Potency, µM (series often up to 46.1 µM), for inactives: top-dose activity change, negative = inhibition; actives 0.071% (n = 340,000); active means falling FRET ratio curve, often poorly fitted, with flat reads before Ran was added; inconclusive means other falling curves, or compound fluorescence or quenching; inactive means flat or rising ratio curve;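 also: potency is read from the fitted curve at half-maximal effect; % of control where 0% means no effect; nearly all actives have a fitted effect of over 45% in size; -100% = wells without RanGTP and RCC1; the record marks most hits as doubtful in a second field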
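Quantitative HTS using a FRET biosensor: 0.1 uM Rango, 0.25 uM importin beta, 0.6 uM Ran, 2 mM GTP, 0.2 uM RCC1 final, PBS with DTT, Tween-20 and BSA. Post-read taken 45 min after Ran addition.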
Rango-impB inh: inhibitors of Rango-importin beta complex formation; actives 0.031% (n = 340,000); Q14974; Rango CFP/YFP FRET sensor + importin beta, 45 min; Potency, µM (doses to about 92.2 µM), without a hit: at the highest dose inhibition of complex formation; active = rising FRET ratio curve, often small or poorly fitted; inconclusive = mostly compound fluorescence or quenching in the first reads; inactive = flat curves in all reads;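 also: potency is read from the fitted curve at half-maximal effect; 0% = DMSO wells and 100% = buffer wells lacking importin beta; nearly all actives have a fitted effect of over 15% in size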
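FRET biosensor (snurportin 1 IBB flanked by EYFP and cerulean), 50 nM, with compound 5 min, then 0.125 microM importin beta in PBS, 1 mM DTT, 0.02% Tween-20, 0.1% BSA. CFP/YFP ratio read after 45 min at room temperature; pre-read flags interference.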
miR-21 reporter: raises the signal of a miR-21 reporter; Potency, µM (doses to about 38.3 µM), without a hit: at the highest dose reporter change, positive = more light; HeLa miR-21 FLuc reporter, luciferase, 48 h; 340,000 tested, under 10 active; active = well fitted rising curve with a large enough effect; inconclusive = small, poorly fitted or top-dose-only effect; inactive = no such curve, though single readings can be large or run the other way;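 also: % of control where 0% means no effect; miR-21 action dims this reporter so a rising signal means less miR-21 action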
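HeLa cells stably expressing CMV-driven firefly luciferase with a downstream miR-21 binding sequence, endogenously expressing miR-21, were treated with titrations (up to about 40uM final) for 48 hours at 37 degree Celsius. Luciferase luminescence was read after lysis.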
Numbers without * were called inactive; ? = inconclusive; / = not tested or not shown; & = joins results of further samples. A portion of the library, so the mix of outcomes need not match the whole.

A first look (5 entries):
cpd	SMILES	GLA inh pH 4.5	Rango release inh	Rango-impB inh	miR-21 reporter
1	CC(=O)c1ccc(NC(=O)CSc2nc(N3CCOCC3)nc(N3CCOCC3)n2)cc1	/	2%	0.8%	-26%
2	CSc1nc2[nH]c3c(c2c2ncnn12)CCCC3	-9	6%	-0.6%	1%
3	O=C(Cn1ncn2cccc2c1=O)N1CCCCC1	1	9%	3.5%	-6%
4	FC(F)(F)c1cc(Oc2ccccc2)nc(-c2ccccn2)n1	-1	8%	0.2%	-8%
5	S=c1[nH]nc(-c2ccc(Cl)cc2)n1/N=C/C=C/c1ccco1	-5	14%	-0.8%	-6%

The list itself, from the start:
cpd	SMILES	GLA inh pH 4.5	Rango release inh	Rango-impB inh	miR-21 reporter
1	CC(=O)c1ccc(NC(=O)CSc2nc(N3CCOCC3)nc(N3CCOCC3)n2)cc1	/	2%	0.8%	-26%
2	CSc1nc2[nH]c3c(c2c2ncnn12)CCCC3	-9	6%	-0.6%	1%
3	O=C(Cn1ncn2cccc2c1=O)N1CCCCC1	1	9%	3.5%	-6%
4	FC(F)(F)c1cc(Oc2ccccc2)nc(-c2ccccn2)n1	-1	8%	0.2%	-8%
5	S=c1[nH]nc(-c2ccc(Cl)cc2)n1/N=C/C=C/c1ccco1	-5	14%	-0.8%	-6%
6	Oc1ccc(C23CCCC2C2(CCCC2)c2ccc(O)cc2O3)c(O)c1 (stereo not drawn)	/	8%	-2.8%	/
7	CC(C)Cc1nnc(NC(=O)CCC(=O)N2CCN(c3ccc(F)cc3)CC2)s1	/	-3%	2.9%	-1%
8	CCOC(=O)c1c(NC(=O)CSc2nnc(C)s2)sc2c1CCC(C)C2 (stereo not drawn)	-12	15%	-0.3%	-10%
9	COc1nc2ccc(C)cc2cc1-c1noc(-c2ccccc2)n1	-13	0%	-2.1%	-2%
10	CCCC(C)NC(=O)c1ccc(OCc2ccc(Cl)cc2)c(OC)c1 (stereo not drawn)	1	-6%	-0.5%	-25%
11	CN1CCC(NC(=S)NC2CC2)CC1	8	-9%	-4.1%	0%
12	O=C(CCc1c[nH]c2ccccc12)N/N=C/c1ccc2c(c1)OCO2	-6	7%	-0.4%	-11%
13	NS(=O)(=O)c1ccc(CCNC(=O)C(=O)NCC2OCCN2S(=O)(=O)c2cccs2)cc1 (stereo not drawn)	/	-17%	0.1%	0%
14	COc1ccc(CNC(=O)CC(C)c2ccccc2)cc1 (stereo not drawn)	/	3%	-1.2%	-8%
15	CC(=O)c1oc2ccccc2c1N	-5	1%	0.5%	-3%
16	CCOC(=O)C1=C(C)N=c2s/c(=C\c3ccc(OC(C)=O)cc3)c(=O)n2C1/C=C/c1ccccc1 (stereo not drawn)	3	-16%	?	1%
17	O=C(O)CCc1ccc(S(=O)(=O)Nc2cc(C(F)(F)F)ccc2N2CCCC2)cc1	/	-18%	-1.1%	/
18	CC1c2cc3c(cc2CCN1C(=O)c1cccc(F)c1)OCCCO3 (stereo not drawn)	/	-1%	-0.7%	19%
19	NC(=O)c1ccc(NC(=O)C2CC2)cc1	4	-11%	2.7%	-6%
20	CC(Sc1ccc(Cl)cc1)C(=O)Nc1ccc2c(c1)OCO2 (stereo not drawn)	-11	15%	-0.2%	-8%
21	CCNc1c(NS(=O)(=O)c2ccc(F)c(Cl)c2)c(=O)oc2ccccc12	/	3%	2.8%	-2%
22	CCN1CCN(C(=S)NC(CC(=O)c2ccccc2)c2ccccc2)CC1 (stereo not drawn)	-4	1%	0.2%	-3%
23	CC1(C(=O)OCC(=O)Nc2cc(S(=O)(=O)N3CCOCC3)ccc2Cl)CC1(Cl)Cl (stereo not drawn)	/	0%	2.0%	/
24	CCOCCCNC(=O)CCC(=O)NNc1nc2ccccc2c2nc(-c3ccccc3)nn12	-2	3%	-1.7%	-3%&-6%
25	O=C(N/N=C/c1cc(O)ccc1Br)c1cccnc1	/	?	?	23%
26	COc1cc(Cl)c(C)cc1NC(=O)CC1SC(N2CCOCC2)=NC1=O (stereo not drawn)	/	-9%	-2.1%	/
27	CCOCCCNC(=O)c1cc2c(-c3ccc(Cl)cc3)nn(C)c2s1	-28	13%	-1.3%	17%
28	O=C(NCc1cccnc1)c1ccc2c(=O)n(CCCN3CCCC3=O)c(=S)[nH]c2c1	3	1%	-0.8%	-3%
29	COc1cccc(CC(=O)OCC(=O)NCCc2ccc(F)cc2)c1	/	-7%	-0.8%	/
30	Cc1ccc(NC(=S)NNC(=O)c2ccc(N3CCOCC3)c([N+](=O)[O-])c2)cc1Cl	-29	-3%	-1.5%	-24%
31	CC1CCCCC1NC(=O)COC(=O)CN1C(=O)c2ccccc2C1=O (stereo not drawn)	/	29%	2.1%	/
32	Cc1cc(C(=O)NCc2ccc3c(c2)OCO3)ccc1[N+](=O)[O-]	/	-5%	-3.4%	-28%
33	COc1cc(CN(C(=S)NCC(=O)N2CCCC2)C2CCCC2)cc(OC)c1OC	-5	-25%	3.0%	1%
34	O=C(NC(Cc1ccccc1)C(=O)O)/C(=C\c1ccc([N+](=O)[O-])cc1)NC(=O)c1ccco1 (stereo not drawn)	/	-11%	2.3%	0%
35	COc1ccc(OC)c(NC(=O)CSc2nc3scc(C)c3c(=O)[nH]2)c1	/	2%	3.7%	-1%
36	COCCCNC(=O)c1ccc2c(=O)n(CC3CCCO3)c(=S)[nH]c2c1 (stereo not drawn)	7	-5%	-4.8%	-5%
37	COc1cc(/C=N/Nc2snc(SC)c2C#N)ccc1O	-17	-15%	?	-28%
38	O=C(Nc1ccc(-n2cnnn2)cc1)C1CCCN1C(=O)Nc1ccc(Br)cc1 (stereo not drawn)	/	2%	-1.4%	-6%
39	Cc1ccc(N(CC(=O)NC(C)c2ccccc2)S(=O)(=O)c2c(C)n[nH]c2C)cc1 (stereo not drawn)	/	-10%	0.6%	2%
40	COc1ccc(NS(=O)(=O)c2ccc(/C=C/C(=O)O)cc2)cc1S(=O)(=O)N1CCOCC1	-6	3%	1.4%	-2%

Quoted from above, entries 39–40
cpd	SMILES	GLA inh pH 4.5	Rango release inh	Rango-impB inh	miR-21 reporter
39	Cc1ccc(N(CC(=O)NC(C)c2ccccc2)S(=O)(=O)c2c(C)n[nH]c2C)cc1 (stereo not drawn)	/	-10%	0.6%	2%
40	COc1ccc(NS(=O)(=O)c2ccc(/C=C/C(=O)O)cc2)cc1S(=O)(=O)N1CCOCC1	-6	3%	1.4%	-2%

(next part)
cpd	SMILES	GLA inh pH 4.5	Rango release inh	Rango-impB inh	miR-21 reporter
41	CCOc1ccc(NS(=O)(=O)c2ccc(C(=O)NCCCN3CCOCC3)cc2)cc1	/	-18%	-0.2%	-1%
42	CN(CC(=O)Nc1c(Cl)cccc1Cl)C(=O)CCNS(=O)(=O)c1ccccc1C(F)(F)F	/	4%	-4.6%	/
43	COc1ccc(Cl)cc1NC(=O)CN1CCN(C(=O)N2CCOCC2)CC1	/	-16%	5.3%	/
44	CSc1nc(O)c(C2OC(=O)c3ccccc32)c(=O)[nH]1 (stereo not drawn)	1	-3%	0.9%	-4%
45	CCOC(=O)C1=C(C)N=C2SC(C(=O)OC)=CC(=O)N2C1c1cccc(OC)c1 (stereo not drawn)	-6	-12%	-2.5%	-1%
46	Cc1cccc(NC(=O)CSc2ccc(C(N)=O)cc2[N+](=O)[O-])c1C	-4	3%	?	2%
47	CCN(CC)CCC(c1cc(OC)c(OC)c(OC)c1)c1c(O)cc(OC)cc1OC (stereo not drawn)	7	7%	0.9%	0%
48	Cc1ccc2nc(NC(=O)CN(C)S(=O)(=O)c3cccc4nsnc34)sc2c1	1	14%	-3.0%	7%
49	CCC(=O)c1cc2c(C)cc(=O)oc2c(C)c1O	-2	?	?	-2%
50	Cc1ccsc1C(=O)N(C)CC(=O)Nc1ccccc1Br	/	31%	1.7%	/
51	O=C(COC(=O)Cc1cccc(C(F)(F)F)c1)Nc1ccc2c(c1)OCCO2	-3	17%	-5.0%	-1%
52	COc1ccc(C2N(Cc3ccccc3)CCN2Cc2ccccc2)cc1[N+](=O)[O-]	4	5%	-3.7%	5%
53	COc1ccccc1OCC(=O)NCC1CCCCC1	0	3%	2.6%	-35%
54	C[C@H](NC(=O)C1CC(=O)N(c2ccc3c(c2)OCCO3)C1)C(=O)N1CCCCC1 (stereo partly drawn)	/	2%	-2.1%	-6%
55	CC[C@H]1CN2CCc3cc(OC)c(OC)cc3C2C[C@@H]1C[C@H]1NCCc2cc(OC)c(OC)cc21 (stereo partly drawn)	/	2%	2.0%	/
56	CN(C)S(=O)(=O)N1CCN(C(=O)c2ccccc2)CC1	4	0%	-1.7%	-1%
57	Cc1ccc(NC(=O)Cc2sc(C)nc2-c2ccc(C)cc2)cc1	-9	10%	5.1%	-30%
58	CCN(CC)S(=O)(=O)c1cc(C(=O)Nc2ccc(Cl)cn2)ccc1C	-4	1%	-3.1%	-6%
59	O=C(O)CC(Cc1ccc(Cl)cc1)C(=O)Nc1ccccc1 (stereo not drawn)	/	16%	-0.1%	-2%
60	COc1ccccc1C(=O)N/C(=C\c1ccccc1)C(=O)NCc1ccco1	/	-3%	0.2%	-1%
61	CN(C)S(=O)(=O)c1cc(NC(=O)CSc2ncc(C(F)(F)F)cc2Cl)ccc1Cl	-22	17%	-0.2%	16%
62	CS(=O)(=O)c1ccc(Cl)c(NC(=O)CSc2nc3ccccc3c(=O)n2Cc2ccco2)c1	/	?	-0.9%	/
63	Cc1ccc(S(=O)(=O)Nc2cnn(-c3ccccc3)c(=O)c2Cl)cc1	-2	10%	2.4%	8%
64	COc1ccc(Cl)cc1NC(=O)CCc1nnc2ccc(N3CCC4(CC3)OCCO4)nn12	/	-23%	-0.4%	-11%
65	COc1cc2cnncc2cc1OC	3	-18%	-3.1%	-5%
66	COc1ccc(CCC(=O)Nc2sccc2C#N)cc1	7	-9%	0.3%	-38%
67	Cc1cccc(NS(=O)(=O)c2ccc(C3CCCCC3)cc2)n1	-1	0%	-0.1%	-7%
68	Cn1c(CSc2ccccc2)c(C#N)c2ccccc21	-9	12%	-2.9%	-67%
69	Cc1ccc(N=Cc2c(O)n(-c3cc(Cl)ccc3N3CCOCC3)c(=O)c3ccccc23)cc1C	3	?	?	-5%
70	CN1CCN(NC(=O)c2ccc(Br)c(S(=O)(=O)N3CCOCC3)c2)CC1	0	-11%	0.1%	1%
71	CC(C)N(C(C)C)S(=O)(=O)c1ccc(N2CCc3ccccc3C2)nc1	/	0%	-2.1%	?
72	CC(=O)C1(O)C(C)CC2C3CC(F)C4(O)CC(O)CCC4(C)C3CCC21C (stereo not drawn)	/	7%	-4.1%	/
73	Cc1cc(C(=O)Nc2ccc(Br)cc2)cs1	/	-6%	-0.5%	-5%
74	Cc1ccc(NC(=O)CN2CCOCC2)c(Br)c1	/	11%	-2.4%	-33%
75	CC(C)Cn1cc(C(=O)NCCCOC(C)C)c2c3ccccc3n(C)c2c1=O	-1	-4%	?	1%
76	CCCCC(C(=O)OCC(=O)c1ccc(OC)cc1)N1C(=O)c2ccccc2C1=O (stereo not drawn)	-7	-9%	2.5%	-2%
77	Cc1ccc(C)c(SCC(=O)NCc2ccco2)c1	7	14%	-2.3%	-9%
78	Nn1c(SCC(=O)Nc2ccc3c(c2)OCO3)nnc1-c1cccc(Cl)c1	5	1%	1.4%	-6%
79	CS/C(N)=N/N=C/c1c(O)ccc2ccccc12	-5	16%	7.6%	-60%
80	C=CCNC(=O)/C=C/c1cccs1	5	17%	-3.0%	-14%
81	O=C(CC(=O)Nc1ccccc1C(=O)O)NNC(=O)Cc1ccccc1	4	2%	-0.8%	2%
82	Cc1nc(Sc2ccc(Cl)cc2)c(C#N)c(C)c1[N+](=O)[O-]	-6	0%	-0.5%	-3%
83	CCOC(=O)c1c(-c2ccccc2)oc2ccc(OCC(N)=O)cc12	/	7%	2.1%	-3%
